Screening results deposited in PubChem BioAssay by Broad Institute.
Tgondii IFNg – T. gondii growth inhibition with IFN-gamma, primary screen, cell-based. activity change, negative = inhibition, %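 (about 20 µM by stock and volumes)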. Toxoplasma gondii growth in IFN-gamma-treated host cells; hits give low values; reference of the scale not given here. hit rate 3.8% among 69,000;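 active means below -70%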;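 further: host cells are HeLa cells infected with Toxoplasma gondii; parasite growth read as luciferase light; one replicate is shown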
An asterisk follows results filed as active; & = joins results of further samples. An excerpt (hit frequency here may not be typical).

canonical_smiles	Tgondii IFNg
Cc1ccc2[nH]cc(CCNC(=O)C3CCCN(C(=O)c4[nH]c(C)cc4C)C3)c2c1 (stereo not drawn)	90.0
Cc1cccc(NC(=O)N2Cc3ccccc3C3(CCN(S(=O)(=O)N(C)C)CC3)C2)c1	-16.1
c1csc(-c2noc(COc3cccc4ccc(N5CCOCC5)nc34)n2)c1	-9.4
COCc1ncn2c1CN(S(=O)(=O)c1cccc(OC)c1)CC2	-12.7
O=C1OCC2(CCN(c3nccc(C4CCCC4)n3)CC2)O1	25.7
CCNC(=O)C(Cc1ccccc1)NC(=O)OCc1ccccc1 (stereo not drawn)	-8.4&37.8
CCOC(=O)CCC(NC(=O)c1ccc(NCN2C(=O)CCC2=O)cc1)C(=O)OCC (stereo not drawn)	-45.1
C[C@H]1CN([C@@H](C)CO)C(=O)c2ccccc2-c2ccccc2CO[C@H]1CN(C)S(=O)(=O)c1cn(C)cn1	68.6
CC(C)c1cc(C(=O)N2CCN(C)C(c3ccccc3)C2)n[nH]1 (stereo not drawn)	-4.3
CC(=O)N1SC(N)=NC1c1ccccc1 (stereo not drawn)	-17.4
CC(C)(C)c1cc(CN2CCCN(C(=O)c3ccco3)CC2)[nH]n1	-0.8
Cc1cc(C)cc(N2CCN(Cc3ccc4ncccc4c3)CC2=O)c1	-8.2
COc1ccc(-c2coc3c(CN4CCOCC4)c(O)ccc3c2=O)cc1	12.8
C[C@H](CO)N1C[C@H](C)[C@H](CN(C)C(=O)c2ccccc2)Oc2cc(-c3cccc(C#N)c3)ccc2S1(=O)=O	-69.5
O=S(=O)(c1ccccc1)N1CCCC12CCN(Cc1ccc(Cl)cc1)CC2	-0.3
CCN(CC)Cc1cnc2n1CCN(Cc1nccs1)CC2	-44.0
CSc1ccc2cc(CN(C)Cc3nccn3C)c(=O)[nH]c2c1	-2.3
CCOC(=O)Cc1c(C(=O)OCC)c(C)cn1C	55.0
CN1C(=O)c2cc(NC(=O)NCc3ccccc3)ccc2OC[C@H]2O[C@@H](CC(=O)NCC3CCCCC3)CC[C@@H]21	-65.1
O=C(COC(=O)c1ccccn1)NC1CCCCC1	-1.4
CC(=O)N1CC[C@@]2(C(=O)Nc3ccccc3)CCN(S(=O)(=O)c3ccccc3)CC[C@H]12	8.6
CCc1cn[nH]c1C1CCN(C(=O)CNS(=O)(=O)c2cccs2)CC1	0.8
Cc1ccc(C)c(OCC(=O)NC(C)c2n[nH]c(=O)[nH]2)c1C (stereo not drawn)	-47.4
Cn1ncc2c(=O)sc(NC(=O)c3ccccc3)nc21	13.4
COc1ccc(S(=O)(=O)N(Cc2nc(-c3ccc(C)cc3)oc2C)c2ccccc2OC)cc1	-0.9
COc1ccccc1-c1ccc([C@H]2[C@@H](CO)N3CCCCN(C(=O)c4cccnc4)C[C@H]23)cc1	-21.5
CCOCC1CC2(COCCN2S(=O)(=O)c2cccc(F)c2)CO1 (stereo not drawn)	0.1
Cn1nc(CN2CCCCC2)c2c1CN(C(=O)c1cccc(C#N)c1)C2	3.4
CN1CCN(c2ccc3ccc(C(=O)Nc4cccc(Cl)c4)cn23)CC1	-37.9
c1cncc(COC2CCN(Cc3ccc(-c4cccnc4)cc3)CC2)c1	-14.5
COCCN1CCO[C@H]2CCN(C(=O)c3cc(C)[nH]n3)C[C@H]21	-54.6
CCNC(=O)[C@@H]1C[C@H](N)CN1C(=O)CCc1ccc(C)c(C)c1	75.1
COCC(=O)NCC1CCN(c2ccc(S(=O)(=O)N3CCOCC3)cc2)CC1	14.0
COc1ccc2c3c(n(C)c2c1)[C@@H](CO)N(C(=O)Nc1ccc(F)cc1)CC31CN(C(=O)CN2CCOCC2)C1	422.0
O=c1oc2cc(O)ccc2cc1-c1csc(-c2ccccc2Cl)n1	-6.8
CCN1CCNC(=O)C12CCN(S(=O)(=O)c1ccc(F)cc1)CC2	-9.9
COc1ccc(S(=O)(=O)N2CCC3(CC2)Nc2cc(F)ccc2-n2cccc23)cc1Cl	29.3
Cc1oc(-c2ccccc2)nc1Cn1nnc(-c2nc(-c3ccc(Br)cc3)no2)c1C	-38.3
Cc1oc(-c2ccc(OC(C)C)cc2)nc1CN(c1ccccc1)S(=O)(=O)c1ccccc1	-38.7
O=C1N(CC2CC2)CCC12CCCN(Cc1cncc(Cl)c1)CC2 (stereo not drawn)	-46.5
CC(C)c1cc(CN(C)C(=O)c2ccc(NC(=O)C3CCC3)cc2)no1	0.2
Cc1ccc2[nH]c(-c3nc(CCN(C)C(=O)c4cncc(Br)c4)no3)cc2c1	178.6
O=C(CN1C(=O)CCc2cc(Br)ccc21)Nc1ccc2c(c1)OCO2	90.5
Cc1nn(CC(C)NCCS(=O)(=O)N(C)C)c(C)c1Cl (stereo not drawn)	-1.9
COc1ccccc1-n1c(=O)n(Cc2nc(-c3ccccc3C)oc2C)c(=O)c2c(C)cc(C)nc21	15.7
Cc1ccc(N2CCO[C@H]3CN(c4ncc(F)cn4)CC[C@@H]3C2)nn1	-9.3
O=C1c2ccccc2C(=O)N1CCCSc1nccn1-c1cc(Cl)ccc1Cl	-3.1
COc1ccccc1CN1C2CCCC1CC(NC(=O)N1CCOCC1)C2 (stereo not drawn)	-4.4
CC(N)(C(=O)O)c1ccc(-c2nn[nH]n2)cc1 (stereo not drawn)	14.2
OC(C#CCN1CCCC1)(c1ccccc1)c1cccnc1 (stereo not drawn)	7.7
Cc1ccc(-c2nc(NC(=O)c3cc(C(C)(C)C)nn3C)sc2C)cc1Cl	-78.2*
C[C@@H]1CN([C@@H](C)CO)C(=O)CCCn2nncc2CO[C@@H]1CN(C)Cc1ccc(C(=O)Nc2ccccc2N)cc1	447.2
CCN1CC2(CC1=O)CN(C(=O)C(C)C)CCN(S(=O)(=O)C1CC1)C2 (stereo not drawn)	7.5
CC(C)n1cnc2nnc3ccc(C(=O)CCN4CCOCC4)cc3c21	1.2
CCCCOc1cc(C(F)(F)F)nc2ccc(CSc3nc4ccccc4[nH]3)cc12	-86.3*
CCn1c(C)nc2cc(NC(=O)CCc3c(C)nn(-c4ccccc4)c3C)ccc21	-6.9
Cc1cnc(NS(=O)(=O)c2cn(C)cn2)c(Br)c1	-20.0
NC(Cc1ccc(Cl)cc1)C(=O)O (stereo not drawn)	3.7
CC(C)[C@H](O)C(=O)N[C@@H](C)C(=O)N[C@H]1C(=O)N(C)CCc2ccccc21	-6.0
O=C(NCc1ccc(N2CCOCC2)cc1)c1cc(F)cc2c1OCOC2	-16.2

New compounds follow:
compound,Tgondii IFNg
O=C(Cc1ccc(F)cc1)NCCc1csc(-c2ccc(Cl)cc2)n1,11.6
Cc1nc(C(=O)Nc2ccccc2)sc1C(=O)Nc1ccccc1,-21.4
Cc1cccc(CCNc2cc(C)nc3ncnn23)c1,3.0
Cc1ccc(Nc2nc(C(=O)NC(C)C)nc3ccccc23)cc1,-78.8*
Cc1csc(C23CC4CC(CC(C4)C2)C3)n1,-0.4
CCOCC1c2c(ncn2C)CCN1Cc1cccnc1 (stereo not drawn),-3.8
Cc1cccc(-c2noc(Cn3cnc4sc5c(c4c3=O)CCNC5)n2)c1,-34.2
Cc1cc(NC(=O)NN2CCOCC2)nn1-c1c(Cl)cc(Cl)cc1Cl,18.3
O=C(C[C@@H]1CC[C@@H]2[C@H](COC[C@H](O)CN2CC2CCOCC2)O1)NCC1CCCCC1,21.0
CCCC(NC(=O)c1cc2cc(S(=O)(=O)N(C)C)ccc2n1Cc1ccncc1)c1cccs1 (stereo not drawn),46.1
N#Cc1ccc(C(=O)N2Cc3nccn3CC(Cn3cccn3)C2)cc1 (stereo not drawn),-1.3
COc1ccccc1Oc1ccc(C(F)(F)F)cc1NC(=O)NC(=O)c1ccccc1F,21.2
CC(=O)Nc1ccc(NC(=O)C(=O)NCCc2csc(-c3ccc(F)cc3)n2)cc1,18.6
CCOc1ccccc1NC(=O)C1CCN(S(=O)(=O)c2ccc3[nH]c(=O)ccc3c2)CC1,115.3
COc1ccc2c(c1)OC1(CC3CCC1CC3C(=O)NCCc1ccccc1)NC2=O (stereo not drawn),12.9
O=C(c1ccccc1C1CCNC1)N1CCOc2ccc(Cl)cc2C1 (stereo not drawn),-3.3
CCc1ccc(-c2nccn2CCn2cccn2)nc1,12.7
O=S(=O)(c1ccc(F)c(Cl)c1)N1CCC2(CC1)Nc1cc(F)ccc1-n1cccc12,21.2
COC(=O)c1cn([C@@H]2C[C@@H](C(=O)NCCc3cccc(Cl)c3)N(C3CCCC3)C2)nn1,-0.3
OC[C@@H]1[C@@H](c2ccc(C#CC3(O)CCCC3)cc2)[C@H]2CN(Cc3cncnc3)CCCCN12,13.5
COc1ccc2c(c1)NC1(CCN(C(=O)c3ccc(OC)cc3OC)CC1)c1cccn1-2,-17.4
CC(C)Nc1n[nH]c2nc(C3CCN(C(=O)C(C)C)CC3)cc(C(F)(F)F)c12,-65.3
O=C(C[C@@H]1CC[C@H]2[C@@H](COC[C@H](O)CN2Cc2cccc(Cl)c2)O1)NCc1cccc(F)c1,-47.5
Cc1ccccc1C(=O)N1CC[C@]2(CCC[C@@H](CN3CCCC3=O)O2)C1,4.5

Next section (three carried over from the part before).
compound,Tgondii IFNg
CC(C)Nc1n[nH]c2nc(C3CCN(C(=O)C(C)C)CC3)cc(C(F)(F)F)c12,-65.3
O=C(C[C@@H]1CC[C@H]2[C@@H](COC[C@H](O)CN2Cc2cccc(Cl)c2)O1)NCc1cccc(F)c1,-47.5
Cc1ccccc1C(=O)N1CC[C@]2(CCC[C@@H](CN3CCCC3=O)O2)C1,4.5
Cc1cc(=O)[nH]n(-c2ccccc2)c1=O,-48.8
COc1ccc(NC(=O)N2C[C@@H](O)COC[C@H]3O[C@@H](CC(=O)NCc4ccncn4)CC[C@@H]32)cc1,-12.0
Cn1c(=O)c(C(=O)NCCO)c(O)c2ccccc21,24.5
Cc1cc(C)c(C(=O)NCCCc2nc3ccccc3n2C)c(=O)[nH]1,-16.7
CN1C(=O)c2cc(NS(=O)(=O)c3ccc(Cl)cc3)ccc2OC[C@H]2O[C@@H](CC(=O)Nc3ccc4c(c3)COC4)CC[C@@H]21,-15.4
COc1ccc(CN2C(=O)N(CC(C)C)C3(CCN(Cc4cc5ccccc5o4)CC3)C2=O)cc1,-3.6
O=C1NC[C@H](COc2ccccn2)[C@]12CCN(Cc1ccccn1)C2,-0.5
O=C(O)c1ccc(-c2c[nH]c3ncc(-c4ccccc4)cc23)cc1C1CCCC1,-84.8*
CS(=O)(=O)N1Cc2[nH]nc(COCc3cccnc3)c2C1,-2.9
CCCNc1nc(-c2ccccc2Cl)nc2ccccc12,-61.2
Cc1ccc(NC(=O)CN2C(=O)CCc3cc(Br)ccc32)cc1,66.5
CO[C@@H](CN(C)C(=O)Nc1ccc(Cl)cc1)[C@H](C)CN(Cc1ccccc1Cl)[C@@H](C)CO,100.8
CCn1c(C2CCN(C(=O)CCc3c[nH]c4ccccc34)CC2)nn(C)c1=O,-0.1
C[C@@H]1CCCCO[C@@H](CN(C)Cc2ccncc2)[C@H](C)CN([C@@H](C)CO)C(=O)c2cc(NC(=O)Cc3ccccc3)ccc2O1,120.1
COc1ccc2c3c(n(C)c2c1)[C@@H](CO)N(Cc1ccccc1OC)CC31CN(C)C1,21.3
O=C(c1ccc2cccnc2c1O)N1CCCC(CCc2ccc(F)cc2)C1 (stereo not drawn),-80.8*
C1CC2(CCN1)CC(COCC1CC1)N(CC1CC1)C2 (stereo not drawn),-38.0
O=C1c2ccccc2N(Cc2ccc(Cl)cc2)C2=NCCN12,-19.6
CCCN1C(=O)CCc2cc(NC(=O)c3cc(SC)ccc3Cl)ccc21,11.0
CC(O)C(Nc1ccccc1CC(=O)OC(C)(C)C)C(=O)O (stereo not drawn),-35.2
CN(C)C(=O)COCc1noc2c1CN(Cc1ccoc1)CC2,-0.6
COCC(=O)N1[C@@H](CO)[C@@H]2c3ccccc3N(C(=O)Nc3ccccc3Cl)C[C@@H]21,4.4
Cc1cc(NC(=O)Nc2scc(S(=O)(=O)c3ccc(Cl)cc3)c2C)on1,-48.8
COc1nc(C)c(C(=O)N2CCN3CCN(C)C(=O)C3C2)s1 (stereo not drawn),10.4

Reprinted at random: four records from the list, in no set order.
compound,Tgondii IFNg
C[C@@H]1CCCCO[C@@H](CN(C)Cc2ccncc2)[C@H](C)CN([C@@H](C)CO)C(=O)c2cc(NC(=O)Cc3ccccc3)ccc2O1,120.1
COc1nc(C)c(C(=O)N2CCN3CCN(C)C(=O)C3C2)s1 (stereo not drawn),10.4
O=C(c1ccc2cccnc2c1O)N1CCCC(CCc2ccc(F)cc2)C1 (stereo not drawn),-80.8*
O=C1c2ccccc2N(Cc2ccc(Cl)cc2)C2=NCCN12,-19.6

Going on with the list.
compound,Tgondii IFNg
COc1ccc(NS(=O)(=O)c2cc(N)ccc2N2CCOCC2)cc1,-12.7
S=C(N/N=C1\CCCc2c1[nH]c1ccc(Br)cc21)Nc1ccccc1,-81.5*
COc1ccccc1-c1nc(Cn2nnc(-c3nc(-c4ccc(C(F)(F)F)cc4)no3)c2C)c(C)o1,-11.8
Cc1ccc2c(c1)NC1(CCN(S(=O)(=O)c3ccc4c(c3)CCCC4)CC1)c1cccn1-2,18.1
CCOC(=O)c1c(NC(=O)c2ccc(Cn3cc(Cl)cn3)o2)sc(C(C)=O)c1C,-24.9
C/C(=C\c1cc(Cl)ccc1O)CN1CCN(c2ncc(F)cn2)CC1,-33.8
O=C(O)CCn1c(=O)sc2ccccc21,6.7
COc1ccc(C(=O)N2CCC3(CC2)Nc2ccccc2-n2cccc23)cc1,-10.7

A draw from above in order of length of the SMILES, largest number first.
compound,Tgondii IFNg
Cc1oc(-c2ccccc2)nc1Cn1nnc(-c2nc(-c3ccc(Br)cc3)no2)c1C,-38.3
N#Cc1ccc(C(=O)N2Cc3nccn3CC(Cn3cccn3)C2)cc1 (stereo not drawn),-1.3
O=C1N(CC2CC2)CCC12CCCN(Cc1cncc(Cl)c1)CC2 (stereo not drawn),-46.5
CCN(CC)Cc1cnc2n1CCN(Cc1nccs1)CC2,-44.0
